# Screening data: PubChem, National Center for Advancing Translational Sciences (NCATS)
# VACV Venus inh: qHTS for Stage-Specific Inhibitors of Vaccinia Orthopoxvirus: Venus Reporter Primary qHTS. Vaccinia virus Venus reporter expression, fluorescence. Potency, µM (top dose mostly 36.5 µM), for inactives: at the highest dose activity change, negative = inhibition, hits mostly inhibitors. 330,000 compounds, 0.46% hits; active means well fitted inhibition curve with a large enough effect; inconclusive means small, poorly fitted or top-dose-only effect; inactive means no such curve, though single readings can be large or run the other way; tested in A549 cells; further: nearly all actives have a fitted effect of over 30% in size; inactives centre near -10
# Vaccinia mCherry: qHTS for Stage-Specific Inhibitors of Vaccinia Orthopoxvirus: mCherry Reporter Primary qHTS; 310,000 compounds, 0.63% hits; Potency, µM (series often up to 36.5 µM), without a hit: top-dose activity change, negative = inhibition, usual class: inhibitors; Vaccinia virus mCherry reporter infection, fluorescence; about a quarter of the inactives have no number; active = well fitted inhibition curve with a large enough effect; inconclusive = small, poorly fitted or top-dose-only effect; inactive = no such curve, though single readings can be large or run the other way; tested in A549 cells; further: nearly all actives have a fitted effect of over 35% in size; inactives centre near -10
# Active calls of the source: *; i = inactive; u = inconclusive; x = not tested or not shown; & = joins results of further samples; [ ] = another dose, or the depositor's remark. On the % scale 0 is the no-effect control and ±100 the full control effect; potency means the concentration at half of the fitted maximal effect.
SMILES,VACV Venus inh,Vaccinia mCherry
N#C/C(=C/c1ccc(-c2ccc(S(=O)(=O)N3CCOCC3)cc2)o1)C(=O)NC1CC1,0.6%,-9.6%
OCC1OC(n2cnc3ccccc32)CC1O (stereo not given),-12.6%,-3.5%
Cc1c(C(N)=O)sc2ncn(CC(=O)N(C)C3CCCCC3)c(=O)c12,0.6%,10.8%
CCN(C(=O)CCc1nc(-c2ccc(C)cc2)no1)c1cc(C)ccc1C,-9.6%,-14.4%
C/C(=N\O)c1ccc2[nH]ccc2c1,6.0%,13.7%
COc1cc(Cl)c(C)cc1Nc1ncccn1,-5.1%,i
COc1ccc2cc(/C=N/NC(=O)c3ccc(CN(c4cccc(Cl)c4Cl)S(C)(=O)=O)cc3)c(Cl)nc2c1,-14.3%,i
Cc1ccc(N2CCN(S(=O)(=O)c3cccc4ccccc34)CC2)cc1Cl,-8.1%,-4.0%
Cc1noc(C)c1COC(=O)Cc1ccc(Cl)c(Cl)c1,-10.2%,-17.0%
COc1ccc(C(=O)N2CCCC(Nc3ccc(C(C)C)cc3)C2)c(OC)n1 (stereo not given),-16.6%,-0.6%
O=S(=O)(c1ccccc1)N(Cc1cccc(F)c1)c1ccccc1,-12.0%,-11.4%
C=CCNS(=O)(=O)c1ccc(OC)c(C)c1,-6.5%,-10.8%
CC(=O)Nc1cccc(C(=O)OCc2csc(CC(=O)Nc3ccccc3C)n2)c1,-16.5%,-18.5%
COc1ccc(C(=O)N/N=C(\Cc2ncc[nH]2)c2ccccc2)cc1,u,u
N#CC(C#N)=C1C=CC=CN1/C(=C\c1ccccc1Cl)C(=O)c1ccccc1,-9.3%,-3.3%
Cc1ccc(CCNC(=O)c2ccc(NC3=NC4CS(=O)(=O)CC4S3)cc2)cc1 (stereo not given),-9.2%,i
CCc1nc2ccccc2n1CC(=O)Nc1cc(C)on1,-7.9%,1.3%
CC(C)c1nc2cc(Cl)ccc2n(Cc2ccccc2)c1=O,0.2%,11.4%
CCCC(=O)N1CCc2cc(OC)c(OC)cc2C1c1cc2cc3c(cc2[nH]c1=O)OCO3 (stereo not given),6.8%,-19.4%
O=C1CSC(c2cccc([N+](=O)[O-])c2)N1CCN1CCCCC1 (stereo not given),-5.8%,i
O=C(O)c1cccc(Sc2cc(Cl)ccc2C(=O)O)c1,-5.6%,i
Cc1cc(NC(=O)COC(=O)C2CCC2)no1,7.9%,i
CCc1ccccc1N1CSC2=C(C#N)C(c3ccccc3F)CC(=O)N2C1 (stereo not given),-9.4%,i
O=C1OCC2=C1C(c1ccccc1)CC(=O)N2c1ccc(F)cc1 (stereo not given),-10.9%,i
COCCCNC(=O)c1ccc(Cn2c(SCc3ccc(F)cc3)nc3cccnc32)cc1,-16.0%,-2.2%
# (cont.)
SMILES,VACV Venus inh,Vaccinia mCherry
CCCC[C@@H]1CC2=C(C(=O)OC(C)(C)O2)[C@@H](c2ccc(Cl)cc2)O1,4.5%,8.5%
COc1ccc(S(=O)(=O)N2CCC(c3nc4ccccc4[nH]3)CC2)cc1,-9.2%,-12.3%
OC[C@H]1O[C@@H](n2cnc3c(NC4CCCC4)ncnc32)[C@H](O)[C@@H]1O,-15.7%&-17.7%,-5.1%&-2.6%
Cc1cc(NCCN(C)C)n2nc(-c3cccs3)cc2n1,-6.0%,-9.7%
CCOC(=O)[C@@H]1[C@H]2COc3cc(OC)ccc3[C@@H]2N2C(=O)N(c3ccc(Br)cc3)C(=O)[C@]12C,-21.3%,-2.5%
CCCCCCCCN1C(=O)[C@H](CC(=O)NCc2cccs2)C[C@@]2(C(=O)OC)CC(C)(C)CC=C12,u,i
O=C(CSc1nc2ccc([N+](=O)[O-])cc2[nH]1)c1ccc(Cl)cc1,-26.5%,-25.4%
Cc1ccc(NC(=O)c2cc3c(=O)oc4ccccc4c3s2)nc1,-4.3%,-1.2%
Cc1ccc(CNC(=O)CCCn2c(=O)c3ccccc3n(Cc3ccccc3Cl)c2=O)cc1,-12.5%,-12.4%
O=C(CSc1n[nH]c(-c2ccncc2)n1)Nc1ccc(Cl)c(Cl)c1,-12.5%,-16.3%
Cc1cc(Oc2ccc(Cl)cc2)nc(-c2ccccn2)n1,-3.3%[7.34 µM],-14.7%[7.34 µM]
Cc1ccc(Cn2c(SCc3cccnc3)nc3c2c(=O)n(C)c(=O)n3C)cc1,-9.7%,-29.1%
O=C(c1cc(-c2ccccc2)on1)N1CCOc2ccc(CN3CCOCC3)cc2C1,-0.1%,-13.5%
CC(=O)N/C(=N/c1nc(C)cc(C)n1)Nc1cccc(C)c1,-26.5%,-11.1%
CCOc1ccc(Cl)cc1C1CC(=O)Nc2cc(OC)c(OC)c(OC)c21 (stereo not given),5.4%,10.7%
COc1cc(C2C(C#N)=C(N)Oc3cc(C)oc(=O)c32)cc(OC)c1OC (stereo not given),-4.1%,-0.3%
COc1ccc(S(=O)(=O)NC2CCSc3ccccc32)cc1OC (stereo not given),-9.1%,i
Fc1ccccc1CCNc1c2c(nc3ncnn13)CCCC2,u,-4.1%
CC(=O)NC(CC(=O)OCC(=O)N1c2ccccc2NC(=O)C1(C)C)c1ccccc1 (stereo not given),-8.5%,-2.3%
COc1ccc(C(=O)NCC2Cc3cccc(-c4ccc(S(C)(=O)=O)cc4)c3O2)c(OC)n1 (stereo not given),-0.6%,-8.2%
CC1=CC(C)(C)Nc2ccc(OC(=O)CN3C(=O)c4cccc5cccc(c45)C3=O)cc21,18.7%,-4.7%
CC(C)(C)N(Cc1ccccc1)C(=O)COC(=O)C1=NN(c2ccccc2)C(=O)CC1,-3.1%,-15.5%
CCCCNC(=S)NC(C)(C)CO,2.5%,-21.8%
O=C(N/N=C/c1ccco1)c1ccc(C(=O)N/N=C/c2ccco2)o1,-8.8%,-7.4%
CN(C(=O)c1ccccc1Cl)c1ccccc1C(=O)NCCc1ccccc1,-8.7%,i

# Reprinted at random: six compounds from above, in no set order.
SMILES,VACV Venus inh,Vaccinia mCherry
CC(C)(C)N(Cc1ccccc1)C(=O)COC(=O)C1=NN(c2ccccc2)C(=O)CC1,-3.1%,-15.5%
CCOc1ccc(Cl)cc1C1CC(=O)Nc2cc(OC)c(OC)c(OC)c21 (stereo not given),5.4%,10.7%
COc1ccc(S(=O)(=O)NC2CCSc3ccccc32)cc1OC (stereo not given),-9.1%,i
Cc1ccc(NC(=O)c2cc3c(=O)oc4ccccc4c3s2)nc1,-4.3%,-1.2%
O=C(N/N=C/c1ccco1)c1ccc(C(=O)N/N=C/c2ccco2)o1,-8.8%,-7.4%
OC[C@H]1O[C@@H](n2cnc3c(NC4CCCC4)ncnc32)[C@H](O)[C@@H]1O,-15.7%&-17.7%,-5.1%&-2.6%

# (continued)
SMILES,VACV Venus inh,Vaccinia mCherry
Cc1ccc(-c2nn3c(C)nnc3s2)cc1NC(=O)c1cccnc1,-9.6%,i
O=C(CSc1nc2ccccc2c(=O)[nH]1)c1ccc(O)cc1O,-23.0%,-10.0%
NC(=O)C1CCN(C(=O)c2ccc(NC(=O)c3nsc4ccccc34)cc2)CC1,-7.1%,-4.0%
COC(c1ccccc1)c1nnc(CCC(=O)N(C)C(C2CC2)C2CC2)o1 (stereo not given),-8.4%,i
CCC(C)NC(=O)C(=O)NCc1ccccn1 (stereo not given),-8.1%,i
COc1ccc(CP(=O)(c2ccccc2)c2ccccc2)cc1,-4.3%,-10.7%
CCCCN1C(=O)C(O)(CC(=O)c2ccccn2)c2ccccc21 (stereo not given),-0.8%,-11.8%
C=CCNc1nc(N)c(C(=O)Nc2cc(C)on2)s1,-16.0%,-7.4%
O=C(NCCN1CCOCC1)c1cnn(-c2nccc(-c3ccccc3C(F)(F)F)n2)c1C1CC1,-8.2%,-8.1%
O=C(/C=C/c1ccc(S(=O)(=O)N2CCOCC2)cc1)NC(=S)Nc1ccc(N2CCOCC2)cc1,-11.3%,-18.2%
Cc1ccccc1NC(=S)N(CCN1CCOCC1)Cc1ccccc1F,-2.3%,-9.8%
O=C(N/N=C/c1ccncc1)c1ccccc1,5.3%,x
NC(=NCCc1ccccc1)NS(=O)(=O)c1ccc2ccccc2c1,3.1%,i
COc1ccc2c(c1)c1c(c(=O)n(Cc3ccccc3)c(=O)n1CC(=O)Nc1ccccc1F)n2C,-0.8%,3.6%
COCC(C)n1c(SCC(=O)N2CCc3ccccc3C2)nc2ccccc2c1=O (stereo not given),-18.2%,u
CC(N)CCCP(=O)(O)O (stereo not given),-6.5%,-0.8%
CC(C)c1ccc(OCC(=O)NC(C)c2ccccc2)cc1 (stereo not given),-18.2%,-8.5%
O=C(COc1ccc2ccccc2c1)NC1CC(=O)N(c2ccccc2)C1 (stereo not given),0.1%[7.34 µM],-1.9%[7.34 µM]
COc1ccc(Cn2cc(CN3CCOCC3)nn2)cc1,0.3%,i
CCCCCc1ccc(C(=O)CCCC)c(=S)[nH]1,u,u
CCOC(=O)C(Cc1nc(OCc2ccccc2)cc(OCc2ccccc2)n1)=NO,u,-30.0%
CCOC(=O)CCc1nc2ccccc2[nH]1,0.0%,32.1%[activator]
Clc1cccc(C2Nc3cccc4cccc(c34)N2)c1,7.6%,u
Cc1cc(C)nc(NS(=O)(=O)c2ccc(NS(=O)(=O)c3ccccc3)cc2)n1,-12.6%,-12.3%
Cc1cc(C)n(-c2ccc(Cl)c(C(=O)NCc3ccccc3)n2)n1,2.2%,-8.0%

# 4 entries from above in another layout.
# Value order – VACV Venus inh	Vaccinia mCherry
> COC(c1ccccc1)c1nnc(CCC(=O)N(C)C(C2CC2)C2CC2)o1 (stereo not given)
 : -8.4%	i
> CCc1nc2ccccc2n1CC(=O)Nc1cc(C)on1
 : -7.9%	1.3%
> O=C(N/N=C/c1ccncc1)c1ccccc1
 : 5.3%	x
> Cc1cc(C)n(-c2ccc(Cl)c(C(=O)NCc3ccccc3)n2)n1
 : 2.2%	-8.0%

# Shown tab-delimited: part of the list above.
molecule	VACV Venus inh	Vaccinia mCherry
Cc1cc(C)n(-c2ccc(Cl)c(C(=O)NCc3ccccc3)n2)n1	2.2%	-8.0%
CN(C(=O)c1ccccc1Cl)c1ccccc1C(=O)NCCc1ccccc1	-8.7%	i

# Additional compounds:
SMILES,VACV Venus inh,Vaccinia mCherry
Cc1cc(C(=O)CN2C(=O)NC(C)(CC(C)C)C2=O)c(C)n1-c1ccc2c(c1)OCO2 (stereo not given),-19.1%,i
O=C(/C=C/c1cccs1)Nc1cccc(NC(=O)/C=C/c2cccs2)n1,-26.5%,-5.8%
COc1ccc(C2C(C(N)=O)=C(C)Nc3nc(SCc4ccccc4Cl)nn32)cc1OC (stereo not given),-9.8%,-10.4%
O=C(NCc1ccco1)C1CCN(S(=O)(=O)N2CCC3(CC2)OCCO3)CC1,-9.1%,i
CCCc1nnc(NC(=O)CCC(=O)N2CCN(Cc3ccc(C)cc3C)CC2)s1,-21.9%,-9.4%
COc1cc2c(cc1OC)[C@@H](NC(=O)Cc1ccc(F)cc1)[C@H](OCc1ccccc1)C2,-24.0%,u
Fc1ccccc1-n1ncc2c1ncn1nc(Cc3ccccc3)nc21,-8.4%,-9.4%
CC1CN(C(=O)/C=C/c2cccc([N+](=O)[O-])c2)CC(C)O1 (stereo not given),5.4%,x
CC1(C)SC2C(NC(=O)COc3ccccc3)C(=O)N2C1C(=O)O (stereo not given),-9.0%&-4.7%&-18.1%,-14.7%&-2.6%
CCC(=O)c1ccc(N2CCN(C(=O)c3ccccc3F)CC2)c(F)c1,-5.2%,-0.6%
Cc1c(C(=O)Nc2ccc(C(C)C)cc2)sc2nc3n(c(=O)c12)CCC3,-7.9%,-6.4%
O=C(O)/C=C/C(=O)Nc1ccccc1-c1ccccc1NC(=O)/C=C/C(=O)O,-3.2%,-17.7%
O=C(N/N=C/c1ccc(OCC(=O)N2CCCCC2)cc1)c1ccccc1,-19.5%,u

# Taken from above:
# In Vaccinia mCherry, `COc1ccc(C2C(C(N)=O)=C(C)Nc3nc(SCc4ccccc4Cl)nn32)cc1OC` (stereo not given) is listed with -10.4%
# In VACV Venus inh, `O=C(NCCN1CCOCC1)c1cnn(-c2nccc(-c3ccccc3C(F)(F)F)n2)c1C1CC1` is listed with -8.2%
# In VACV Venus inh, `Cc1ccccc1NC(=S)N(CCN1CCOCC1)Cc1ccccc1F` is listed with -2.3%
